Bioassay records as filed in PubChem BioAssay.
GIV Gai3 FP = blocks GIV peptide binding to rat Galpha-i3. Galpha-i3/FITC-GIV peptide fluorescence polarization, 90 min; active compounds read low; scaled: aluminum fluoride 0%, vehicle 100%. percent of control (FP), % (no concentration beside the values). 210,000 tested, 0.42% active. AID 1224905. P08753;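 active means replicate mean at 85% of control or lower, very high polarization wells dropped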;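 further: wells of about 15 µL received 100 nL stock; the first replicate is given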
Target sequence (P08753 whole entry, looked up): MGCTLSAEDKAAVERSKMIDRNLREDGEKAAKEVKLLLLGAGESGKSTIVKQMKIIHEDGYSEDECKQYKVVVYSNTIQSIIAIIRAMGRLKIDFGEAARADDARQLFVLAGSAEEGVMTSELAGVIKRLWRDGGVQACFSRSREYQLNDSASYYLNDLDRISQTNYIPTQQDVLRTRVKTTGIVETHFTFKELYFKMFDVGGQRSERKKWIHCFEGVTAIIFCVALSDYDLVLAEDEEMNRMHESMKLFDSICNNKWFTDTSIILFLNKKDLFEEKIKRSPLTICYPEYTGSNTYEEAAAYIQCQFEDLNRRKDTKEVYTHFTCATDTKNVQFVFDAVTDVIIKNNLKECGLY
Numbers without * were called inactive.

GIV Gai3 FP	SMILES
104	O=S(=O)(c1ccc(-c2nnc(C3CCCC3)o2)o1)N1CCCC1
100	COc1cc(NC(=O)Cn2nc(-c3nc(-c4ccc(C)cc4)no3)c3ccccc32)cc(OC)c1
106	Cc1ccc2c(c1)C(O)(C1SC(N)=NC1=O)C(=O)N2 (stereo not given)
99	Cc1cc(-c2csc(S(=O)(=O)NCCCN3CCN(c4ccccc4F)CC3)c2)on1
116	COc1cccc2c1OC1(C=C2)c2ccccc2-c2ccccc2N1C (stereo not given)
104	O=S(=O)(c1ccc2c(c1)-c1oncc1CO2)N1CCN(C(c2ccccc2)c2ccccc2)CC1
105	CCOc1cccc(C2NC(CCSC)(C(=O)O)C3C(=O)N(Cc4ccccc4)C(=O)C23)c1O (stereo not given)
101	CCOC(=O)C1CCCN(C(=O)C2CCN(Cc3cn(C)c4ccc(Cl)cc34)CC2)C1 (stereo not given)
108	CNC(=O)c1nc(C(C)C)nc2c1OCCO2
113	O=C(Nc1cc(Cl)ccc1Cl)c1cc2n(n1)C(C(F)(F)F)CC(c1ccc3c(c1)OCO3)N2 (stereo not given)
104	CC(=O)N1CCN(C(=O)c2ccc(NCc3ccccc3Cl)c(S(=O)(=O)Nc3cccc(C(F)(F)F)c3)c2)CC1
111	COc1cccc(-c2csc(Cc3nc(-c4cccc(Cl)c4)no3)n2)c1
103	COc1ccc(OCC(=O)c2ccc(OC3OC(COC(C)=O)C(OC(C)=O)C(OC(C)=O)C3OC(C)=O)cc2O)cc1 (stereo not given)
104	O=C(Nc1ccc(N2CCN(Cc3ccccc3)CC2)cc1)c1cccc(-n2cnnc2)n1
105	Cc1c(Cl)cccc1NC(=O)CCc1nc(CSc2nc3ccccc3o2)no1

Next section:
GIV Gai3 FP	SMILES
103	CCOc1ccc(N2C(=O)/C(=C\C=C\c3ccccc3)S(=O)(=O)C2c2cccc([N+](=O)[O-])c2)cc1 (stereo not given)
106	CNC(=O)C1CCN(Cc2noc(-c3ccc(F)cc3)n2)CC1
105	CCN1CCN(c2ncnc3sc(C(=O)Nc4ccc(OC)c(Cl)c4)c(C)c23)CC1
105	CC(C)NC(=O)c1cc2c(=O)n(C)ccc2n1C
100	Cn1nc(C(=O)N2CCCC(C(=O)NC3CC3)C2)c2c1CCN(C(=O)c1cccc(F)c1)C2 (stereo not given)
114	N#CC1=C(N)OC(C2CC2)=C(n2cnc([N+](=O)[O-])n2)C1c1ccccc1 (stereo not given)
113	O=C1/C(=C\c2ccco2)SC(c2ccccc2)N1c1ccc(Br)cc1 (stereo not given)
100	COC(=O)c1nnn(-c2nonc2N)c1CSc1nc2ccccc2[nH]1
100	CCc1cc(C2CCCN2C(=O)Nc2ccc(F)cc2F)on1 (stereo not given)
109	Cc1ccc(-n2c(C)nc3ncnc(-c4ccccc4)c32)cc1
106	COC(=O)c1ccc2c(=O)n(Cc3ccccc3)c(N3CCSC3)nc2c1
103	CCOc1ccc(Nc2nc(N3CCOCC3)c3ccccc3n2)cc1
107	CCCCC(O)(CCCC)C1=NN(c2ccc(C)cc2)C(=O)C(c2ccccc2)(c2ccccc2)O1
112	N#Cc1cc(C#N)c(SCC(=O)Nc2ccccc2Br)nc1N
107	CCc1onc(C)c1C1CCCN1Cc1ccccc1Cl (stereo not given)

Remaining list, next part
GIV Gai3 FP	SMILES
103	CCOc1ccc(N2C(=O)C(C)SC23C(=O)N(CN2CCCCC2)c2ccccc23)cc1 (stereo not given)
103	O=C1CCCc2c1cnc1c(C(=O)NCc3ccccc3)cnn21
102	CCOc1ccc(-c2csc(C)n2)cc1S(=O)(=O)N1CCC(C)CC1
98	CN(c1ccc(-c2nc(-c3ccccc3)no2)cn1)C1CCCCC1
117	O=C1Nc2ccc(S(=O)(=O)Oc3ccccc3)c3cccc1c23
100	CCc1cc(C2CCCN2C(=O)Nc2ccc3c(c2)OCO3)on1 (stereo not given)
108	COc1ccc(Nc2nc(Nc3ccc(OC)cc3)nc(Sc3nncn3C)n2)cc1
116	COc1ccc(-n2ncc3c(N4CCN(c5cccc(C)c5C)CC4)ncnc32)cc1
110	COc1ccc(C2C3=C(CCCC3=O)N(c3ccc([N+](=O)[O-])cc3)C(=N)/C2=C(/O)c2ccc(C)cc2)cc1 (stereo not given)
105	Cc1ccc(N=CC23c4ccccc4C(c4ccccc42)C2C(=O)N(c4ccccc4)C(=O)C23)cc1 (stereo not given)
108	O=C(Nc1cc(-c2cccs2)no1)C1CCC1
104	CCOC(=O)C1=C(C)NC2=C(C(=O)C(C(=O)OCC)C(c3ccc(OC)cc3)C2)C1c1ccc(SC)cc1 (stereo not given)
107	Cn1c(CNC(=O)c2ccco2)nnc1SCC(=O)N1N=C(c2ccc(Br)cc2)CC1c1ccc(F)cc1 (stereo not given)
114	Cc1ccc(C(=O)Oc2ccc3c(c2OC(=O)c2ccc(C)cc2)-c2cccc4c2C(C3)N(C)CC4)cc1 (stereo not given)
110	COc1ccc(/C=C2\C=C(c3ccccc3)N(c3ccc(Br)cc3C)C2=O)cc1Br

Single entries from the results shown:
Reading of `CCOc1ccc(N2C(=O)C(C)SC23C(=O)N(CN2CCCCC2)c2ccccc23)cc1` (stereo not given) in GIV Gai3 FP: 103
Reading of `CCOC(=O)C1=C(C)NC2=C(C(=O)C(C(=O)OCC)C(c3ccc(OC)cc3)C2)C1c1ccc(SC)cc1` (stereo not given) in GIV Gai3 FP: 104

The results go on:
GIV Gai3 FP	SMILES
110	Cc1ccc(C(=O)Nc2cnc(N3CCN(c4cc(C)ccc4C)CC3)c(C(=O)O)c2)cc1
105	O=S(=O)(c1ccc(-c2nnc(C3CC3)o2)o1)N1CCN(c2ccc(F)cc2)CC1
102	CCC(C)NC(=O)C1CC(=O)N(c2ccc3c(c2)CCN3C(=O)C2CC2)C1 (stereo not given)
99	O=C(O)C1CSC(c2ccc(F)cc2)N1 (stereo not given)
100	COc1ccc(C2Nc3c(C)cc(C)cc3[C@H]3OCC[C@@H]23)cc1 (stereo not given in full)
113	O=c1sc2c(s1)SCC(=NNC(=S)Nc1ccccc1)CS2
100	c1cncc(-c2nnc(CC3CCCC3)o2)c1
99	COc1ccc(-c2cc(C(=O)N(C)CCc3noc(C(=O)NCc4ccccc4)n3)no2)cc1
115	CCc1ccc(C2(c3ccc(CC)cc3)SC3(SC(C(C)=O)=NN3c3ccc(Br)cc3)c3ccccc32)cc1 (stereo not given)
97	Cc1nc(-c2cc(S(=O)(=O)Nc3cc(F)ccc3F)c(C)s2)sc1C
100	COCCN1C(=O)C(=O)/C(=C(/O)c2ccccc2)C1c1ccc(OC)cc1OC (stereo not given)
107	CCCCOc1ccc(/C=c2\sc3nc(=O)c(C)nn3c2=O)cc1
100	COc1ccccc1C(=O)Nc1ccccc1SCc1nnc(-c2ccccc2)o1
110	CCOC(=O)c1c(NC(=O)c2ccco2)sc2c1CCN(C(=O)OCC)C2
102	COc1ccccc1NC(=O)c1sc2ncnc(N3CCN(c4ccccn4)CC3)c2c1C

16 entries from above, tab-delimited.
Compound	GIV Gai3 FP
Cn1c(CNC(=O)c2ccco2)nnc1SCC(=O)N1N=C(c2ccc(Br)cc2)CC1c1ccc(F)cc1 (stereo not given)	107
Cc1ccc(C(=O)Oc2ccc3c(c2OC(=O)c2ccc(C)cc2)-c2cccc4c2C(C3)N(C)CC4)cc1 (stereo not given)	114
COc1ccc(/C=C2\C=C(c3ccccc3)N(c3ccc(Br)cc3C)C2=O)cc1Br	110
Cc1ccc(C(=O)Nc2cnc(N3CCN(c4cc(C)ccc4C)CC3)c(C(=O)O)c2)cc1	110
O=S(=O)(c1ccc(-c2nnc(C3CC3)o2)o1)N1CCN(c2ccc(F)cc2)CC1	105
CCC(C)NC(=O)C1CC(=O)N(c2ccc3c(c2)CCN3C(=O)C2CC2)C1 (stereo not given)	102
O=C(O)C1CSC(c2ccc(F)cc2)N1 (stereo not given)	99
COc1ccc(C2Nc3c(C)cc(C)cc3[C@H]3OCC[C@@H]23)cc1 (stereo not given in full)	100
O=c1sc2c(s1)SCC(=NNC(=S)Nc1ccccc1)CS2	113
c1cncc(-c2nnc(CC3CCCC3)o2)c1	100
COc1ccc(-c2cc(C(=O)N(C)CCc3noc(C(=O)NCc4ccccc4)n3)no2)cc1	99
CCc1ccc(C2(c3ccc(CC)cc3)SC3(SC(C(C)=O)=NN3c3ccc(Br)cc3)c3ccccc32)cc1 (stereo not given)	115
Cc1nc(-c2cc(S(=O)(=O)Nc3cc(F)ccc3F)c(C)s2)sc1C	97
COCCN1C(=O)C(=O)/C(=C(/O)c2ccccc2)C1c1ccc(OC)cc1OC (stereo not given)	100
CCCCOc1ccc(/C=c2\sc3nc(=O)c(C)nn3c2=O)cc1	107
COc1ccccc1C(=O)Nc1ccccc1SCc1nnc(-c2ccccc2)o1	100

Next results:
GIV Gai3 FP	SMILES
115	Cc1ccc(C(=O)c2sc3nc4c(cc3c2N)C(=O)CC(C)(C)C4)cc1
106	O=C(CSc1nnc(-c2cc3ccccc3o2)n1-c1ccccc1)Nc1ccccc1C(=O)O
104	CN(C)c1ccc(-c2noc(C(=O)NCCc3ccc(S(N)(=O)=O)cc3)n2)cc1
111	CC(C)Nc1nc(NC(C)C)nc(Oc2ccc(=O)n(C)n2)n1
99	Cc1ccc(C(=O)N2CCC(Nc3ncnc4c3CCC4)C2)s1 (stereo not given)
103	CCC(C)(C)NS(=O)(=O)c1cc(-c2nc(C)c(C(=O)N3CCCC3)s2)n(C)c1
101	CCOC(=O)C1=C(C)NC2=C(C(=O)C(C(=O)OCC)C(c3ccc(OC)cc3)C2)C1c1ccc(C)cc1 (stereo not given)
105	O=C(CCSc1ccccc1)Nc1sc2c(c1-c1nc3ccccc3s1)CCCC2
107	COC(=O)C1=C(C(=O)OC)SC2(S1)C(C(=O)OC)=C(C(=O)OC)SC1=C2c2cc(C)c(C)cc2NC1(C)C
100	COc1cccc(-n2nnc3c(N4CCN(C(=O)C5CCCC5)CC4)ncnc32)c1
108	CC(C)CCNC(=O)N1CCCC1c1cc(C(C)C)on1 (stereo not given)
99	COc1ccc(NS(=O)(=O)c2cc(-c3noc(C(=O)N4CCCC4)n3)sc2C)cc1OC
105	CCOc1ccccc1N(C)S(=O)(=O)c1ccc2[nH]cc(C(=O)N(CCOC)CCOC)c(=O)c2c1
101	CC(=O)c1cc2c(cc1NC(=O)CSc1nc3[nH]ncc3c(=O)n1-c1ccc(Cl)cc1)OCO2
101	CC(C)CCNC(=O)c1cc(S(=O)(=O)N2CCOCC2)ccc1Sc1ccc(Br)cc1

(continued)
GIV Gai3 FP	SMILES
104	CCN(c1cccc(C)c1)S(=O)(=O)c1ccc2[nH]cc(C(=O)N3CCC4(CC3)OCCO4)c(=O)c2c1
109	CCOc1ccc(N2C(=O)CC(Sc3nc4ccccc4s3)C2=O)cc1 (stereo not given)
103	CCc1ccc(NC(=O)c2ccc(F)c(S(=O)(=O)N3CCc4ccccc43)c2)cc1
133	CN(C)c1ccc(/C=C2/SC(=Nc3ccc4ccccc4c3)NC2=O)cc1
104	O=C(CSc1nnc2c(n1)[nH]c1ccccc12)NCCOc1ccccc1
105	Cc1ccc(-c2nc(C3CCN(S(=O)(=O)c4ccc(F)cc4F)CC3)no2)cc1
99	O=C(Nc1ncnc2sc3c(c12)CCCC3)c1ccccc1Br
106	CCc1nn2c(c1-c1ccc(C)c(S(=O)(=O)N3CCC(C)CC3)c1)NC(=O)CCC2=O
101	CCCN(CCC)C(=O)CCc1nc(-c2ccc(N3CCCC3)cc2)no1
100	c1ccc(CN(Cc2ccccc2)c2ncnc3c2cnn3-c2ccccc2)cc1
111	O=CN1CCC(=O)N(Cc2ccccc2)c2ccccc21
102	CC(C)NC(=O)CCn1c(=O)c2cc(Cl)ccc2n2c(SCC(=O)NC3CCCC3)nnc12
104	Cc1ccc(C)c(S(=O)(=O)N2CCCN(c3nc4cccnc4s3)CC2)c1
97	Cc1ccc(-n2ccc(=O)c(-c3nc(-c4ccccc4Br)no3)n2)cc1
118	CC1(C)CC(=O)C2=C(C1)c1c(ccc3ccccc13)NC2c1cc(C(C)(C)C)c(O)c(C(C)(C)C)c1 (stereo not given)

More compounds follow.
GIV Gai3 FP	SMILES
99	CC1CCC2(CC1)Nc1ccccc1NC2=NCc1cc(F)cc(F)c1 (stereo not given)
99	CC(=O)N1CCCc2cc(S(=O)(=O)N3CCC(C(=O)Nc4cccc(C)n4)CC3)ccc21
95	CCc1c(C)nc2ncnn2c1Sc1ccc(N)cc1
104	O=C(CNC(=O)c1ccccc1Br)N/N=C/c1ccc([N+](=O)[O-])s1
98	Cc1ccc(S(=O)(=O)N2CCC(N3CCOCC3)CC2)cc1Cl
105	CCOC(=O)c1sc2nc(SCC#N)n(Cc3ccccc3)c(=O)c2c1C
106	CCCC(CCC)C(=O)Nc1nnc2n1CCCS2
102	O=C(Cc1c(Sc2ccccc2F)[nH]c2ccccc12)N1CCN(c2ccccn2)CC1
111	COCc1cc(C)nc(SCC(=O)Nc2cccc3ccccc23)c1C#N
105	C=CCOC(=O)C1=C(C)NC(SCC(=O)Nc2cc(OC)c(Cl)cc2OC)=C(C#N)C1c1cccs1 (stereo not given)
110	COc1ccc(C2C3=C(CCCC3=O)N(c3ccc([N+](=O)[O-])cc3)C(=N)/C2=C(/O)c2ccccc2)cc1 (stereo not given)
103	COCCNC(=O)c1ccc(-c2nnc(C(=O)Nc3cccc(F)c3)s2)cc1
108	COc1ccc(-c2cc(C(F)(F)F)c(C#N)c(SCC(=O)Nc3cc(C)on3)n2)cc1
99	COc1ccc(-c2nc3sc(CCNC(=O)c4ccc(Br)cc4)c(C)n3n2)cc1
102	CCOc1ccc(CNC(=O)c2ccc(Oc3ccnc(-c4ccc(C)cc4)n3)cc2)cc1OCC

Going on with the list:
GIV Gai3 FP	SMILES
97	Cc1ccc2nc(-c3ccc(S(=O)(=O)N4CCCCC4)cc3)cn2c1
112	COc1cc(-n2c(C)nc3cc(C(=O)NCc4cccnc4)ccc32)cc(OC)c1OC
105	O=C1CSC(c2ccc(Cl)c(Cl)c2)Nc2cccc3cccc1c23 (stereo not given)
106	CCSc1nnc(-c2nn(C)c3c2CN(S(=O)(=O)c2ccccc2)CC3)n1CC
104	COCCNC(=O)CSc1nc2cc(C(=O)NCCOC)ccc2c(=O)n1Cc1ccc2c(c1)OCO2
103	Cc1noc(C)c1C1CCCN1C(=O)Nc1ccc(F)cc1F (stereo not given)
102	O=C1NC(=O)C(=Cc2ccc(OCc3cccc([N+](=O)[O-])c3)c(Br)c2)C(=O)N1
108	CC(C)c1noc(C2CCCN2Cc2ccccn2)n1 (stereo not given)

A portion of the library (hit frequency here may not be typical).
